WNV NS2B-NS3 inh – blocks West Nile virus NS2B-NS3 protease activity; z-score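 (tested at a level between 10 and 100 µM)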; 65,000 tested, 0.18% active; WNV NS2B-NS3 protease, fluorogenic substrate Ex360/Em465; hits give low values;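 active = z-score at -3 or under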;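 note: score is relative to mean and spread of the compound wells of a plate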
Target sequence (P06935 1371-1501 limits assumed): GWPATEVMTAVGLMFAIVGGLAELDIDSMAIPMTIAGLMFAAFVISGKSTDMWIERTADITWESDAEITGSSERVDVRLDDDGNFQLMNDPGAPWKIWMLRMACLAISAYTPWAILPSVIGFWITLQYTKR
Target sequence (P06935 1502-1679 limits assumed): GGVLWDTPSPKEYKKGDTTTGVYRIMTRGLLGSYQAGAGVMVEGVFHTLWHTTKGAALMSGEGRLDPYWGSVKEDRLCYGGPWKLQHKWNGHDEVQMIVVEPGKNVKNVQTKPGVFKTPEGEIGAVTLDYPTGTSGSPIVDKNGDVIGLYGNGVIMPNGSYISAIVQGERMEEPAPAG
MT1-MMP reporter – MT1-MMP gene expression reporter suppression – cell-based, luciferase reporter, luminescence (AID 618); MT1-MMP promoter luciferase reporter cells, luminescence; calls from a first round at 10 µM; hits with a dose series show EC50 in µM; 87,000 tested, 0.62% active;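 active = over half of the reporter light lost at 10 µM or EC50 under 50 µM; inactive = the rest and hits that failed the dose series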;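 note: actives suppress MT1-MMP promoter-driven transcription so potencies describe inhibitors; HT1080 fibrosarcoma cells; overnight exposure; toxic or luciferase-blocking compounds were not removed from the actives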
Hsc70 ATP site – Hsc70 inhibitors, probe displacement, primary screen, biochemical, fluorescence polarization (AID 568); Hsc70 fluorescence polarization, probe displacement; higher % means a stronger effect; strong numbers were not always called active; one-dose displacement, % at 20 µM; IC50 in µM for titrated hits; 83,000 tested, under 10 active;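 active = displacement above 50% without optical interference and an IC50 on retest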;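 note: ATPase domain with a fluorescein-tagged ATP probe; 0% = vehicle and 100% = excess ADP; read after one hour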
An asterisk follows results filed as active; i = inactive; nt = not tested or not shown; + = active, no number. An excerpt. The share of hits here may be higher or lower than overall.

| canonical_smiles | WNV NS2B-NS3 inh | MT1-MMP reporter | Hsc70 ATP site |
| --- | --- | --- | --- |
| Cc1sc2nc(SCC(=O)NCc3ccco3)n(CCc3ccccc3)c(=O)c2c1C | 0.03 | i | 3.9% |
| Cc1ccccc1NC(=O)c1c(-c2ccccc2)noc1C | -0.49 | i | -0.1% |
| CCOC(=O)C1CCN(CC(O)COc2ccc(C(=O)CC)cc2)CC1 (stereo unspecified) | 1.7 | i | 1.1% |
| COC(=O)CC1SCCNC1=O (stereo unspecified) | -0.05 | i | 1.6% |
| CC1=CC(=O)OC1Cc1ccncc1 (stereo unspecified) | -1 | i | -1.4% |
| COc1cc(C(=O)Nc2nccs2)ccc1OCc1c(C)noc1C | -0.5 | i | 2.2% |
| O=C(N/N=C/C=C/c1ccccc1)c1ccccc1Br | nt | i | -4.0% |
| CCCn1c(SCC(N)=O)nnc1C(C)C | -0.55 | i | 0.0% |
| Cc1nc2cc(NC(=O)NCc3ccco3)ccc2o1 | -0.32 | i | -0.3% |
| CC(=O)OC(C(=O)NCc1ccc(F)cc1)c1ccccn1 (stereo unspecified) | nt | i | 0.2% |
| CC1(C)C(c2cccs2)=NC(c2ccccc2)N1O (stereo unspecified) | -0.31 | i | -0.1% |
| COc1ccc(C(=O)Nc2cccc(-c3nc4ncccc4o3)c2C)cc1 | nt | i | -0.7% |
| CCc1cc(C(=O)Cc2cnn(-c3ccccc3)c2)c(O)cc1O | -0.94 | i | 0.4% |
| CC1=C(C(=O)OC(C)C)C(/C=C/c2ccccc2)NC(=O)N1 (stereo unspecified) | -0.55 | i | -1.0% |
| CS(=O)(=O)N1CCC(C(=O)NCC2CCCO2)CC1 (stereo unspecified) | -0.74 | i | -3.0% |
| O=C(NCCCN1CCOCC1)c1coc2ccccc2c1=O | 0.32 | i | 4.5% |
| COc1ccccc1S(=O)(=O)Cc1ccc(C(=O)NCc2cccnc2)o1 | 3.2 | i | 2.8% |
| CC(=O)c1cccc(NC(=O)C2CCN(S(=O)(=O)c3c(C)n[nH]c3C)CC2)c1 | -0.29 | i | 0.8% |
| Cc1cc(NC(=O)CSc2nnc(C3CC3)n2C)no1 | -0.95 | i | 2.1% |
| COc1ccc(C(=O)C2CCN(C(=O)c3ccco3)CC2)cc1 | -0.09 | i | 0.1% |
| N#CC1=C2SCN(Cc3ccccc3)CN2C(=O)CC1c1cccs1 (stereo unspecified) | 1.3 | i | 2.3% |
| CC(=O)c1ccc(NC(=O)C2(c3ccccc3)CCOCC2)cc1 | nt | i | -2.1% |
| C=CCn1c(SCC(=O)N2CCCCC2)nc(O)cc1=O | nt | i | 0.7% |
| Cc1ccc(C2C(C(=O)c3cc4ccccc4o3)=C(O)C(=O)N2CCN2CCOCC2)o1 (stereo unspecified) | -0.95 | i | -0.1% |
| O=c1c2cc(Cl)ccc2nc2ccc(N3CCCC3)nn12 | 0.34 | i | 3.6% |
| COc1ccc(C(CC(=O)N2CCOCC2)C(C)C)cc1 (stereo unspecified) | 0.26 | i | 2.8% |
| CC(=NCC1CCCO1)C1=C(O)CC(C)(C)CC1=O (stereo unspecified) | -0.12 | i | 1.9% |
| Cc1ccc(NC(=O)Cc2ccc(F)cc2)cc1 | nt | i | 4.5% |
| CCOc1ccc(C(=O)Nc2cccc(C)n2)cc1 | -0.65 | + | -2.5% |
| CCNc1nc(NC(C)C)nc(N(C#N)C(C)C(=O)N(C)C)n1 (stereo unspecified) | -0.01 | i | -4.0% |

Given field by field: four of the compounds above
CCOC(=O)C1CCN(CC(O)COc2ccc(C(=O)CC)cc2)CC1 (stereo unspecified)
  WNV NS2B-NS3 inh: 1.7
  MT1-MMP reporter: i
  Hsc70 ATP site: 1.1%
CC1(C)C(c2cccs2)=NC(c2ccccc2)N1O (stereo unspecified)
  WNV NS2B-NS3 inh: -0.31
  MT1-MMP reporter: i
  Hsc70 ATP site: -0.1%
CCc1cc(C(=O)Cc2cnn(-c3ccccc3)c2)c(O)cc1O
  WNV NS2B-NS3 inh: -0.94
  MT1-MMP reporter: i
  Hsc70 ATP site: 0.4%
CS(=O)(=O)N1CCC(C(=O)NCC2CCCO2)CC1 (stereo unspecified)
  WNV NS2B-NS3 inh: -0.74
  MT1-MMP reporter: i
  Hsc70 ATP site: -3.0%

Carrying on.
| canonical_smiles | WNV NS2B-NS3 inh | MT1-MMP reporter | Hsc70 ATP site |
| --- | --- | --- | --- |
| CC1Cn2c(nnc2C23CC4CC(CC(C4)C2)C3)S1 (stereo unspecified) | -1.2 | i | 5.1% |
| CCC(C(=O)NC1CCCC1)N(C(=O)Cn1nnc(-c2ccc(OC)c(OC)c2)n1)C1CCCCC1 (stereo unspecified) | 0.76 | i | -8.2% |
| COc1ccccc1NC(=O)CSC1=NC(=O)C(NC(C)=O)C(=O)N1 (stereo unspecified) | 0.94 | i | 2.2% |
| Cc1nc(SCC(=O)Nn2c(-c3ccccc3)nc3ccccc3c2=O)n[nH]1 | -1 | i | -4.7% |
| COc1ccc(-c2cc(C(F)(F)F)n3ncc(C(=O)NCc4ccco4)c3n2)cc1 | -0.55 | i | -16% |
| COC(=O)c1ccccc1CCC(C)=O | -0.6 | i | -3.2% |
| O=C(Cn1c(NCCCO)nc2ccccc21)c1cccs1 | 0.39 | i | 0.5% |
| CCNC(=O)CC1C(=O)N(C)C(=S)N1NC(=O)c1ccc(Cl)cc1 (stereo unspecified) | nt | i | 3.8% |
| O=C(NC1(C(F)(F)F)NC(=O)N(Cc2ccco2)C1=O)c1cccs1 (stereo unspecified) | 1.5 | i | 4.2% |
| COC(=O)COc1cccc(NC(=O)c2cccs2)c1 | 2.1 | i | 0.6% |
| Cc1cc(N2CCN(S(=O)(=O)c3ccccc3)CC2)c2ccccc2n1 | -0.24 | i | 3.2% |
| O=C(COc1c(Br)cc(Br)c2cccnc12)N1CCc2ccccc2C1 | nt | i | 2.5% |
| CC1=C(C(=O)OCC2CCCO2)C(c2cccc(O)c2)NC(=O)N1 (stereo unspecified) | 1.1 | i | 4.1% |
| CCC(C)(C)n1nnnc1C(c1ccc(O)c(OC)c1)N1CCc2ccccc2C1 (stereo unspecified) | nt | i | 0.4% |
| Cn1c(=O)c2cnc(N3CCOCC3)nc2n(C)c1=O | -1.3 | i | 6.7% |
| CN1C=CC2=C(C#N)C(N)C(C#N)(C#N)[C@H](c3ccccc3)[C@H]2C1 (stereo partly specified) | nt | i | 24% |
| Cc1ccc(C)c(N2CCN(C(=O)CCS(=O)(=O)c3cccc4nonc34)CC2)c1 | -0.12 | i | 1.3% |
| COc1ccc(C2C(C(=O)NCC3CCCO3)c3cc(OC)c(OC)cc3C(=O)N2C)cc1OC (stereo unspecified) | -0.24 | i | 1.3% |
| CCOc1cc(C2C3=C(CCCC3=O)NC3=C2C(=O)CCC3)cc(Cl)c1O | -0.55 | i | -4.0% |
| O=C(CCc1ccc(S(=O)(=O)N2CCCCC2)cc1)c1nnc(-c2ccccc2)o1 | -0.39 | i | -4.0% |
| CCc1ccccc1NC(=O)c1ccoc1C | 0.41 | i | 1.0% |
| COC(=O)c1ccc(NC(=O)CSc2nc3cccnc3n2C)cc1 | nt | i | 1.3% |
| O=C(Nc1ccccc1)N1CCn2c1nc1ccccc12 | 0.18 | i | -3.2% |
| CC(=O)Nc1cccc(NC(=O)C2CCCN2C(=O)Nc2cccc(C)c2)c1 (stereo unspecified) | 0.49 | i | -6.2% |
| COc1ccc(NC(=O)C2CCCN2S(=O)(=O)c2ccc3c(c2)CCC(=O)N3)c(OC)c1 (stereo unspecified) | 0.01 | i | -5.7% |
| O=c1c2ccccc2oc2nc(-c3ccco3)n(CCc3ccccc3)c(=O)c12 | -0.22 | i | -2.0% |
| c1cncc(Nc2nc(-c3cccs3)cs2)c1 | -1.4 | i | 0.8% |
| COc1cc(OC)nc(NC(=O)CSc2nnc(-c3ccccc3)n2C2CCCCC2)n1 | 0.92 | i | 2.1% |
| CCCCc1c(O)nc(SCC(=O)Nc2ccc3c(c2)CCC3)[nH]c1=O | 0.38 | i | 3.1% |
| COc1ccc(C(=O)N2CCN(c3ccccn3)CC2)cc1 | nt | i | -3.1% |
| COc1ccc(CCNC(=O)COC(=O)c2cnc(C)cn2)cc1OC | 0.94 | i | 1.6% |
| CC(=O)NC(=O)NC1OC(=O)C(Cl)=C1Cl (stereo unspecified) | -1.2 | i | 2.7% |
| COc1ccc(-c2nnc(SCc3cc(C)ccc3C)n2N)cc1 | nt | i | 3.6% |
| Cc1cc(C(=O)NCCN2CCN(c3cccc(Cl)c3)CC2)n(-c2ccccc2)n1 | 0.21 | + | 3.1% |
| CCCSC1=C(C#N)C(c2cccs2)C(C(=O)Nc2ccccc2)=C(C)N1 (stereo unspecified) | nt | i | 0.3% |
| Cc1ccccc1NC(=O)CN1CCC(n2nnc3ccccc32)CC1 | nt | i | 4.1% |
| CCCCNC(=O)NCC(=O)Nc1ccc(F)c(F)c1 | -0.05 | i | -6.4% |
| Cc1cc(C)c2c(=O)[nH]c(SCC(=O)N(C)C)nc2n1 | nt | i | -0.7% |
| CCn1c(SCC(=O)c2ccc(Cl)cc2)nnc1-c1ccoc1C | 0.34 | i | -7.8% |
| O=C(CC1NCCNC1=O)OCc1ccccc1 (stereo unspecified) | -0.62 | i | -2.7% |

(next part)
| mol | WNV NS2B-NS3 inh | MT1-MMP reporter | Hsc70 ATP site |
| --- | --- | --- | --- |
| COc1ccc(NC(=O)CN2CCC(n3c(C)nc4cc(F)ccc43)CC2)c(OC)c1 | -0.37 | i | 0.6% |
| CCOC(=O)CNC(=O)CSc1nc2cccnc2n1CC | nt | i | 4.7% |
| Cc1ccc(/C(O)=C2\C(=O)C(=O)N(c3cc(C)on3)C2c2cccc(Cl)c2)cc1 (stereo unspecified) | -0.77 | i | 3.7% |
| COc1cc(NC(=O)CSc2nnnn2-c2ccccc2)cc(OC)c1OC | 0.07 | i | 3.0% |
| O=C(O)c1ccc(OC2CSC2)cc1 | -1.2 | i | -8.4% |
| Cc1ccc2c(c1)N(CC(=O)O)C(=O)CO2 | 0.23 | i | -1.6% |
| O=C(Nc1nc(-c2ccccc2)cs1)C1CCCCN1S(=O)(=O)c1ccccc1 (stereo unspecified) | 1.5 | i | -0.1% |
| Nc1ncnc2c1ncn2[C@@H]1O[C@H](CO)[C@@H](O)[C@H]1O | -2.3 | i | -0.9% |
| COc1ccc(CCNC(=O)C2CCN(Cc3nc(-c4ccc(Cl)cc4)oc3C)CC2)cc1OC | 1.1 | i | -6.3% |
| Cc1ccccc1-n1c(SCc2c(C)noc2C)nnc1-c1cccnc1 | nt | i | 83% |
| N#CC1=C2SCN(Cc3ccco3)CN2C(=O)CC1c1cccc2ccccc12 (stereo unspecified) | -0.81 | i | 0.4% |
| COc1ccc(Cl)cc1NC(=O)C(C)N1CCN(C/C=C/c2ccccc2)CC1 (stereo unspecified) | nt | i | -0.5% |
| CC(=O)c1c(N2CCN(c3cccc(Cl)c3)CC2)nc(=S)n(-c2ccccc2)c1C | -0.36 | i | -4.0% |
| CC(C)OCCCn1c(-c2ccco2)nc2nc3ccccc3nc21 | 2.8 | i | -6.7% |
| N#CCCN1CCN(S(=O)(=O)c2ccc(S(=O)(=O)NC3CCCCC3)cc2)CC1 | -0.52 | i | 2.9% |
| C=CCn1c(-c2cc(OC)c(OC)c(OC)c2)n[nH]c1=S | -2 | i | 0.0% |
| Cc1cccc(C(C)C)c1-n1nnnc1-c1ccccc1 | 0.009 | i | -0.5% |
| Clc1ccc(C2C3=C(Nc4ncnn42)c2ccccc2CC3)cc1 (stereo unspecified) | nt | i | -0.5% |
| COCCn1c(C)cc(C(=O)CSc2nnc(-c3cccnc3)n2-c2ccccc2F)c1C | -0.14 | i | 3.9% |
| Nn1cnnc1N/N=C/c1cc([N+](=O)[O-])c(Cl)cc1Cl | nt | i | 2.6% |
| CCOC(=O)c1[nH]c2ccc(Br)cc2c1NC(=O)CNC | 0.08 | i | 3.8% |
| CCn1nnc(NC(=O)c2ccccc2Br)n1 | -1.4 | i | 0.0% |
| Cc1ccc(C2c3c(oc4ccccc4c3=O)C(=O)N2c2nnc(C)s2)o1 (stereo unspecified) | -0.02 | i | 4.2% |
| CC1=C(C(N)=O)C(c2ccccn2)n2nc(-c3ccccc3Cl)nc2N1 (stereo unspecified) | 0.46 | i | 5.0% |
| O=c1c2cccnc2[nH]c(=S)n1CCC1=CCCCC1 | 0.1 | i | -1.0% |
| CCOc1ccc(C(=O)N2CCN(Cc3ccccc3)CC2)cc1 | 0.53 | i | 10% |
| O=C(NC(=S)Nc1nc2c(s1)CSc1ccccc1-2)c1ccccc1 | nt | i | 0.5% |
| COc1ccccc1NC(=O)NS(=O)(=O)c1ccc(C)cc1 | nt | i | 3.1% |
| COc1ccc(NC(=O)C(CCSC)N2C(=O)c3ccccc3C2=O)cc1 (stereo unspecified) | nt | i | 1.2% |
| CCOC(=O)C1CCCN(C(=O)c2cc3c(=O)n(C)c4ccccc4c3n2C)C1 (stereo unspecified) | -0.5 | i | 4.8% |
| CC1(C)CC(=O)c2c(nn(-c3ccccc3)c2-c2ccncc2)C1 | nt | i | 0.5% |
| O=C(Cn1nnc2ccccc21)NCc1ccccc1 | -0.98 | i | -0.7% |
| c1ccc2oc(CCc3nc4ccccc4o3)nc2c1 | 0.22 | i | 1.3% |
| O=C(Nc1ccc2c(c1)OCO2)C1CCN(C(=O)CSc2ncnc3ccccc23)CC1 | -0.91 | i | -6.2% |
| Cc1c(OCC(F)(F)F)ccnc1CS(=O)c1nc2ccccc2[nH]1 (stereo unspecified) | 0.06 | i | -2.8% |

Bioassay records as filed in PubChem BioAssay.
